Screens as filed in PubChem.
VDR inh – blocks the human vitamin D receptor. P11473. VDR-SRC2-3 peptide fluorescence polarization, 2 h. Potency, µM, without a hit: max response, negative = inhibition, hits mostly inhibitors. 400,000 compounds, 0.93% hits; active means well fitted inhibition curve with a large enough effect; inconclusive means small, poorly fitted or top-dose-only effect, or another doubt; inactive means no such curve, though single readings can be large or run the other way; further: series mostly up to about 120 µM
Target sequence (P11473 whole entry, looked up): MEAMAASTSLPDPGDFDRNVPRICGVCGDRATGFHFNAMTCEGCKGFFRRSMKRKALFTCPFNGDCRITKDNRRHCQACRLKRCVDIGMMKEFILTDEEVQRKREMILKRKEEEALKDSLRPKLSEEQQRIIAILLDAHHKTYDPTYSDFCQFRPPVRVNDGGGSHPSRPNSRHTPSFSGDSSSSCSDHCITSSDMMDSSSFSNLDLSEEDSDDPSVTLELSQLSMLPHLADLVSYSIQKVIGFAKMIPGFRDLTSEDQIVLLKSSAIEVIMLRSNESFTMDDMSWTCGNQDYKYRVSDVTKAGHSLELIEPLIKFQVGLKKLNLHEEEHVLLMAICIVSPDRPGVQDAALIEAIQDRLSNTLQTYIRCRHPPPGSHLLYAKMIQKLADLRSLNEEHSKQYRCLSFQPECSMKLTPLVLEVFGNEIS
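VDR–SRC2-3 interaction, FP format. Cmpds 23 nl via pintool, brief spin, 2 h ambient incubation.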
Active calls of the source: *; u = inconclusive; & = joins results of further samples; [ ] = remark or other dose. On the % scale 0 is the no-effect control and ±100 the full control effect; potency means the concentration at half of the fitted maximal effect. Only part of the results is shown; rates above refer to the full screens.

SMILES | VDR inh
CC(C)N1CCC(NC(=O)NC2CCCCC2)CC1 | -10%
O=C(Nc1nc2c(Cl)cccc2s1)C1CC1 | -15%
Cc1noc(/C=C/Nc2ccc(F)cc2F)c1[N+](=O)[O-] | -9%
Cc1ccc(NC(=O)CN(C)C(=O)c2ccccc2OCc2c(C)noc2C)cc1 | 2%
Cc1ccc(OCC(=O)N(C)CC(=O)Nc2ccc(N3CCOCC3)cc2)cc1 | -21%
O=C(/C=C/c1ccc(-c2ccc(F)cc2)o1)N1CCCC1 | 2%
COc1ccc(-c2cc(C(=O)NCc3ccc(Cl)cc3)no2)cc1OC | 3%
COc1ccc(Cl)cc1NC(=S)Nc1cccc(C)c1 | 10%
O=C(CSc1ncn[nH]1)Nc1cc(S(=O)(=O)N2CCCC2)ccc1Cl | -2%
O=C(O)c1ccc(N=N/C(=N\Nc2ccc(C(=O)O)cc2)c2ccccc2)cc1 | -7%
COc1ccc(CC(=O)OCc2cc3ccc(C)cc3[nH]c2=O)cc1 | 3%
CCOC(=O)C[n+]1c(C)sc2ccc(OC)cc21 | u
O=C1CC(c2cccs2)CC2=C1C(c1ccccc1)n1ncnc1N2 (stereo not drawn) | 3%
Cc1cccc(C(=O)Nc2nnc(S(=O)(=O)N3CCOCC3)s2)c1 | -7%&6%
Clc1ccc(-c2nn3c(-c4cc(-c5ccccc5)n[nH]4)nnc3s2)cc1 | -8%
CCOC(=O)C1(Cc2ccccc2C)CCCN(C(=O)c2ccnn2C)C1 (stereo not drawn) | -3%
Cc1cccc(OCC(O)Cn2c(=N)n(CCN3CCCCC3)c3ccccc32)c1 (stereo not drawn) | -10%
Cc1ccccc1-c1cccc([C@@H]2C[C@H]3[C@H](CON3C)CN2C(=O)CCc2ccccc2)c1 | -16%
C=CCSc1nnc(-c2cccnc2)o1 | -8%
CC1CCN(C(=O)COC(=O)c2nn(C)c(=O)c3ccccc23)CC1 | 10%
Cc1ccc(CNS(=O)(=O)c2c(N)n(C)c(=O)n(C)c2=O)cc1 | 30%[activator]
CCc1nc2sc3c(c2c(=O)n1CCO)CCC3 | -1%
CCOc1ccc(NC(=O)c2cc3cc4ccc(OC)cc4nc3o2)cc1 | -1%
CCc1ccc(NC(=O)CC2C(=O)N(c3cccc(OC)c3)C(=O)N2Cc2ccc(F)cc2)cc1 (stereo not drawn) | 3%
CCOCCCn1c(=N)c(C(N)=S)cc2c(=O)n3cccc(C)c3nc21 | 79µM*
COC(=O)c1ccccc1S(=O)(=O)N1CCC(C(=O)NC2=NCCS2)CC1 | -2%
COc1ccc(CCN(C)C2CCCN(C(=O)Cn3cnnn3)C2)cc1OC (stereo not drawn) | 8%
CCOc1ccc(NC(=O)C2CCCN(c3c(CC)c(C)nc4ncnn34)C2)cc1 (stereo not drawn) | -1%
Cc1ccc(C)c(N2CCN(C(=O)c3cc(C)nc4c3c(C)nn4-c3ccccc3)CC2)c1 | 3%
COc1ccc(N2CCN(C(=O)Cc3cccs3)CC2)cc1 | -4%
Cc1ccc2c(c1Br)C(O)(CC(=O)c1ccc(F)cc1)C(=O)N2 (stereo not drawn) | 12%
Cc1[nH]c(C)c(S(=O)(=O)N2CCC(C)CC2)c1C(=O)N1CCCC1 | -1%
O=C(COC(=O)c1ccc([N+](=O)[O-])o1)Nc1ccc(N2CCOCC2)cc1 | 1%
O=C(O)c1ccc(Nc2nc3c(s2)CCCC3)cc1 | 112%[activator]
CC1=NN(C(=O)CCc2ccccc2)C(O)(c2ccncc2)C1 (stereo not drawn) | -3%
O=C(O)c1cnn(-c2nc(-c3cccc(F)c3)cs2)c1C(F)(F)F | -1%
COc1ccccc1N1CCN(C(=O)c2cc3c(-c4ccccc4F)nn(C)c3s2)CC1 | 2%
COCC(=O)Nc1cc(C)cn(Cc2cccc(C(F)(F)F)c2)c1=O | 2%
S=C1NCN(CCc2ccccc2)CN1 | 0%
Cc1ccc(S(=O)(=O)Nc2cc3c4c(c2)CCN4C(=O)CC3)cc1 | 3%
Cc1nc(NC(=O)c2c(-c3ccccc3)noc2C)sc1C(=O)N(C)C | -7%
O=C(CN1CCN(c2ccccn2)CC1)N1c2ccccc2Sc2ccc(C(F)(F)F)cc21 | 2%
CCCCN(CCCC)C1=C(C(=O)c2ccccc2)N(C)S(=O)(=O)c2ccccc21 | -3%
COc1ccc(C(C)(C)C)cc1NC(=O)CCN1C(=O)NC(C)(C)C1=O | 2%
CCOc1ccc(NC(=O)c2sc3nc4c(c(-c5ccc(OC)cc5)c3c2N)C(=O)CC(C)(C)C4)cc1 | 5%
COC(=O)C1(CCSC)NC(c2ccc(O)c(OC)c2)C2C(=O)N(c3ccc(C)cc3)C(=O)C21 (stereo not drawn) | 7%
Cc1cccc(/C=N/n2c(C)cc(C)c(C#N)c2=O)c1 | 12%
Cc1c(C(=O)N2CCCC2)c(S(=O)(=O)Nc2ccccc2)c(C)n1C | -14%
Cc1ccc(N2CC(C(=O)Nc3cc(Cl)ccc3-n3cncn3)CC2=O)cc1 (stereo not drawn) | -6%
O=C(NNC(=O)C1CCC1)c1ccccc1 | -10%
(continued)
SMILES | VDR inh
Cc1ccc(N2CC(NS(=O)(=O)c3cccnc3)CC2=O)cc1 (stereo not drawn) | 2%
COc1cc2c(cc1OC)CN(c1nc(CN3CCOCC3)nc3sc4c(c13)CCCC4)CC2 | 9%
Fc1ccc(-c2noc3ncnc(NCc4cccc(Cl)c4)c23)cc1 | -7%
Cc1sc(NC(=O)CS(=O)(=O)c2ccccc2)c(C(N)=O)c1C | -3%
Cc1ccnc(NC(=O)CNC(=O)Cc2cccc3ccccc23)c1 | -6%
COc1ccc2oc(=O)c(C(=O)Nc3ccccc3-c3ccccc3)cc2c1 | 12%
COc1ccc(-c2cc(C(F)(F)F)nc(NCCc3ccccc3)n2)cc1 | -7%
CCN(CC)C(=O)Cn1c(=O)n(-c2ccccc2)c(=O)c2c3c(sc21)CCC3 | 4%&1%
CC(Oc1ccccc1)C(=O)N=Nc1c(O)[nH]c2ccc(Br)cc12 (stereo not drawn) | -12%
C[C@H](NC(=O)[C@H]1N2C(=O)c3ccccc3C2SC1(C)C)C(=O)N1CCCCC1 (stereo partly drawn) | -16%
Cc1ccc(OCC(=O)N(Cc2ccco2)Cc2ccco2)cc1 | 15%
Cc1ccc(SCc2cc(=O)n3[nH]c(C)nc3n2)cc1 | -2%
O=C(Nc1cccnc1)c1cccc(S(=O)(=O)Nc2ccccc2F)c1 | -17%
O=C(NCc1ccco1)c1cnc2sccn2c1=O | 3%
COc1ccc(Cc2nnc(NC(=O)Nc3ccc(F)cc3)s2)cc1OC | u
CC1CCCC(C)N1C(=O)COC(=O)c1ccc(Br)o1 (stereo not drawn) | -21%
CCOc1ccc(NC(=O)CSc2cn(CC(=O)N3CCCCCC3)c3ccccc23)cc1 | 2%
Cc1ccccc1OCC(=O)NNC(=O)c1cc(S(=O)(=O)N(C)C)ccc1N1CCCC1 | -13%
COc1cc([N+](=O)[O-])ccc1NC(=O)N1CCC2(CC1)Nc1cc(F)ccc1-n1cccc12 | 11%
Cc1ccc(-c2nc(SCC(N)=O)c(C#N)c3c2CCCC3)cc1 | 0%
CC(=O)c1cc2c(cc1N/C(=N/S(=O)(=O)c1ccc(C)cc1)c1ccccc1)OCO2 | -4%&-3%
CC(C)[C@H]1COCCS(=O)(=O)N1Cc1ccccc1-c1cccc(Cl)c1 | -23%
CC(C)S(=O)(=O)C/C(N)=N/OC(=O)c1cc(Cl)cc(Cl)c1 | 6%
CC(=Nc1ccc2c(c1)nc(CO)n2C)C1=C(O)CC(C)(C)CC1=O | 9%
CC[n+]1c(-c2ccccc2)csc1Nc1c(C)n(C)n(-c2ccccc2)c1=O | 4%
CC(C)N(Cc1ccccc1)C(=O)COC(=O)C1CCCCC1 | 8%
CC(=O)c1c(Nc2ccc3c(c2)OCCO3)oc(C)cc1=O | 7%
COc1ccc(C)cc1NC(=O)CN(C)S(=O)(=O)c1cc(C)ccc1OC | -16%
COc1cc(C(=O)NCCC(c2ccccc2)c2ccccc2)cc(OC)c1OC | -2%
CCN(C(=S)NC(=O)C1CC1)c1ccccc1 | -10%
CN1C(=O)c2ccccc2Sc2ccc(NC(=O)NC3CC3)cc21 | 14%
S=C(NCc1ccc2[nH]c3c(c2c1)CCCC3)Nc1ccccc1Cl | 9%
Cc1cccc(OC(C)C(=O)N2CCc3ccccc3C2)c1 (stereo not drawn) | 10%
O=S1(=O)CCN2C(Cc3ccc(SC(F)F)cc3)=CSC2=N1 | -11%
CCN(N=O)[C@@H](Cc1ccccc1)CN(N=O)[C@@H](Cc1ccccc1)CN(C)N=O | 16%
COc1ccc(S(=O)(=O)NCCCCC(=O)O)cc1C(=O)O | -10%
CCC(=O)Nc1cccc(C(=O)c2ccc(C)c(C)c2)c1 | 13%
C/C(=N\Nc1ccc(F)cc1)c1ccc(N2CCOCC2)c(F)c1 | 0%
Cc1cccc(CCNS(=O)(=O)c2ccc3c(c2)NC(=O)C(C)S3)c1 (stereo not drawn) | -8%
CN(C(=O)COc1ncnc2sccc12)C1CCCCC1 | -18%
CCOC(=O)Cn1c(=O)c2c(nc3n2CCS3)n(C)c1=O | 7%
CC(C)(C)NC(=O)C(c1cccs1)N(CC1CCCO1)C(=O)c1ccc(-c2ccccc2)[nH]1 (stereo not drawn) | -15%
CSCC[C@H](NC(=O)c1ccc(Br)o1)c1nnc2ccccn12 | u
COCCCNc1cc(C)nc2ccccc12 | 5%
NS(=O)(=O)c1ccc(NC(=O)COC(=O)CC2Sc3ccccc3NC2=O)cc1 (stereo not drawn) | -4%
COc1ccc(N2CCN(C(=O)c3nc4nc(C)cc(C)n4n3)CC2)cc1 | 5%
CCN(Cc1ccccc1)Cc1nnnn1Cc1ccccc1 | 8%
Cc1ccc(NC(=O)C(c2ccc(Cl)cc2)N2CCOCC2)cc1 (stereo not drawn) | 10%
CCN1CCN(CC(O)COCc2ccccc2)CC1 (stereo not drawn) | 4%
O=C(O)C(Cc1ccccc1-c1ccccc1)C(=O)O | 5%
Other compounds:
SMILES | VDR inh
O=C(NNC(=S)Nc1ccc(Cl)cc1Cl)C1CC1 | -13%
O=C(Nc1ccc2c(c1)OCCO2)C1CCN(C(=O)c2ccc(F)cc2)CC1 | 10%
CC1=C(C(=O)OC2CCCCC2)C(c2ccc(C)o2)C2=C(CC(C)(C)CC2=O)N1 (stereo not drawn) | -17%
O=C(NC1CCCCC1)c1cc(Cl)nc2ccccc12 | -6%
Cc1cc(S(=O)(=O)N2CCOCC2)ccc1OCC(=O)NCc1ccccn1 | -11%
N#Cc1c(N)sc2c1CCN(CCc1ccccc1)C2 | -8%
CC(=O)N/C(=C\c1ccccc1)C(=O)Nc1ccc(O)cc1 | -5%
CCc1cccc(NC(=O)CN(C)S(=O)(=O)c2cccc3nsnc23)c1 | -10%
Nc1nn(-c2ccccc2)nc1C(=O)OCc1c(F)cccc1Cl | -3%
O=C(C(c1ccccc1)c1ccccc1)N1CCN(c2ccccn2)CC1 | 0%
O=C(O)/C=C\C(=O)Nc1ccc(N2CCN(c3ccc(Cl)cc3)CC2)cc1 | u
O=C(Nc1ccc2nc(-c3cccnc3)[nH]c2c1)c1ccccc1F | -9%
COc1cc2cc(CN(CCc3ccccc3C)C(=S)NCCCN3CCOCC3)c(=O)[nH]c2cc1OC | -15%
COc1ccc(-n2cc(CNCCc3cscn3)c(-c3ccccc3Cl)n2)cc1 | -5%
Cc1ccc(CNC(=O)CS(=O)Cc2nc(-c3ccccc3Cl)oc2C)cc1 (stereo not drawn) | 5%
CN(C)c1cnn(-c2ccccc2)c(=O)c1Cl | 0%
COc1cc(OC)c(C(=O)OCC(=O)Nc2ccc(S(=O)(=O)N3CCOCC3)cc2)cc1OC | -15%
N#Cc1ccsc1NC(=O)C1CCN(C(=O)c2ccc(F)cc2)CC1 | 14%
COc1ccc(C2(C(=O)NCCN3CCOCC3)CCOCC2)cc1 | 20%
CSC1=C(C#N)C(c2ccccc2C)C(C#N)=C(N)N1 (stereo not drawn) | 9%
Nc1nc(SCC(=O)NCc2ccco2)[nH]c(=O)c1-c1ccccc1 | 0%
Cc1nc(-c2cccc(NC(=O)C(C)Oc3ccccc3)c2)cs1 (stereo not drawn) | -10%
CCS(=O)(=O)N1CCN(Cc2ccc([N+](=O)[O-])cc2)CC1 | 8%
Cc1ccc(S(=O)(=O)N2CCOCC2)cc1C(=O)OCC(=O)NC1CC1 | -9%

Some of the entries so far, in markdown.
| structure | VDR inh |
| --- | --- |
| O=C(NC1CCCCC1)c1cc(Cl)nc2ccccc12 | -6% |
| Cc1cc(S(=O)(=O)N2CCOCC2)ccc1OCC(=O)NCc1ccccn1 | -11% |
| N#Cc1c(N)sc2c1CCN(CCc1ccccc1)C2 | -8% |
| CC(=O)N/C(=C\c1ccccc1)C(=O)Nc1ccc(O)cc1 | -5% |
| CCc1cccc(NC(=O)CN(C)S(=O)(=O)c2cccc3nsnc23)c1 | -10% |
| Nc1nn(-c2ccccc2)nc1C(=O)OCc1c(F)cccc1Cl | -3% |
| O=C(C(c1ccccc1)c1ccccc1)N1CCN(c2ccccn2)CC1 | 0% |
| O=C(O)/C=C\C(=O)Nc1ccc(N2CCN(c3ccc(Cl)cc3)CC2)cc1 | u |
| O=C(Nc1ccc2nc(-c3cccnc3)[nH]c2c1)c1ccccc1F | -9% |
| COc1cc2cc(CN(CCc3ccccc3C)C(=S)NCCCN3CCOCC3)c(=O)[nH]c2cc1OC | -15% |
| COc1ccc(-n2cc(CNCCc3cscn3)c(-c3ccccc3Cl)n2)cc1 | -5% |
| Cc1ccc(CNC(=O)CS(=O)Cc2nc(-c3ccccc3Cl)oc2C)cc1 (stereo not drawn) | 5% |
| CN(C)c1cnn(-c2ccccc2)c(=O)c1Cl | 0% |
| COc1cc(OC)c(C(=O)OCC(=O)Nc2ccc(S(=O)(=O)N3CCOCC3)cc2)cc1OC | -15% |
| N#Cc1ccsc1NC(=O)C1CCN(C(=O)c2ccc(F)cc2)CC1 | 14% |
| COc1ccc(C2(C(=O)NCCN3CCOCC3)CCOCC2)cc1 | 20% |
| CSC1=C(C#N)C(c2ccccc2C)C(C#N)=C(N)N1 (stereo not drawn) | 9% |
| Nc1nc(SCC(=O)NCc2ccco2)[nH]c(=O)c1-c1ccccc1 | 0% |
